Beta apoptosis – beta cell apoptosis inhibition | INS-1E cytokine-induced death, ATP luminescence, 48 h; percent of positive-control rescue, neutral wells zero | protection from apoptosis, % (concentration not given with the values) | 300,000 tested, 0.8% active;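 active = all replicates at 75% or more, or half of them and the mean; inconclusive = half reach 75% but not the mean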;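 also: 0% = cytokine-treated negative control wells and 100% = positive control rescue; higher means more ATP so stronger rescue from cytokine killing; wells of about 40 µL received 100 nL stock; the first replicate is given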
A1 inh – inhibitors of the anti-apoptotic protein A1, read as caspase activation; MEF A1-2A-BIM cells, Caspase-Glo 3/7 luminescence, 3 h; percent of clofoctol response, vehicle zero; caspase activation, % (concentration not given with the values); 330,000 tested, 0.066% active; AID 2462;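 active = over half of replicate activation scores above 10%, or exactly half above 10 with the replicate mean above 10; inconclusive = replicate mean below 10 yet half the replicates above 10; inactive = over half of replicates below 10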;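 also: wells of about 30 µL received 50 nL stock; many hits fall short of the cut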
Calb FLC – C. albicans growth modulation with fluconazole; C. albicans CaCi-2 (fluconazole-resistant clinical isolate) + fluconazole, Alamar Blue growth, 48 h; growth inhibition, % (concentration not given with the values); 300,000 tested, 0.57% active; AID 1979;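 active = most replicates above 75%; inconclusive = exactly half above 75%; inactive = most below 75%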;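 also: all wells also contain fluconazole at 8 µg/ml as a sub-toxic cotreatment; 0% = median of DMSO wells and 100% = median of geldanamycin control wells; wells of about 8 µL received 7.5 nL stock; the first replicate is given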
B2AR ag – human beta-2 adrenergic receptor agonism by FAP; P07550; 340,000 tested, 0.43% active; Am2.2-beta2AR cells, FAP receptor internalization, flow cytometry; reference of the scale not given here; response, % (concentration not given with the values); AID 504454;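 active = response above a set limit, near 3 SD of response in nonfluorescent compounds, cut at about 42% in these data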;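 also: stock transfer was 100 nL into about 11 µL; a reference agonist was the positive control; negative values mostly stem from fluorescent compounds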
LANA-H2A inh – blocks KSHV LANA binding to histone H2A/H2B; Q9QR71; cell-free LANA-H2A/H2B peptide, fluorescence polarization; inhibition, % (concentration not given with the values); 320,000 tested, 0.6% active; in the data active = inhibition mostly above about 10%, no sharp cut-off; inactive = mostly below about 6.7%;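 also: stock transfer was 7.5 nL into about 10 µL; 0% = median of vehicle wells and 100% = median of positive control wells; one replicate is shown; the record names a cut of 25% in any replicate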
Target sequence (Q9QR71 whole entry, looked up): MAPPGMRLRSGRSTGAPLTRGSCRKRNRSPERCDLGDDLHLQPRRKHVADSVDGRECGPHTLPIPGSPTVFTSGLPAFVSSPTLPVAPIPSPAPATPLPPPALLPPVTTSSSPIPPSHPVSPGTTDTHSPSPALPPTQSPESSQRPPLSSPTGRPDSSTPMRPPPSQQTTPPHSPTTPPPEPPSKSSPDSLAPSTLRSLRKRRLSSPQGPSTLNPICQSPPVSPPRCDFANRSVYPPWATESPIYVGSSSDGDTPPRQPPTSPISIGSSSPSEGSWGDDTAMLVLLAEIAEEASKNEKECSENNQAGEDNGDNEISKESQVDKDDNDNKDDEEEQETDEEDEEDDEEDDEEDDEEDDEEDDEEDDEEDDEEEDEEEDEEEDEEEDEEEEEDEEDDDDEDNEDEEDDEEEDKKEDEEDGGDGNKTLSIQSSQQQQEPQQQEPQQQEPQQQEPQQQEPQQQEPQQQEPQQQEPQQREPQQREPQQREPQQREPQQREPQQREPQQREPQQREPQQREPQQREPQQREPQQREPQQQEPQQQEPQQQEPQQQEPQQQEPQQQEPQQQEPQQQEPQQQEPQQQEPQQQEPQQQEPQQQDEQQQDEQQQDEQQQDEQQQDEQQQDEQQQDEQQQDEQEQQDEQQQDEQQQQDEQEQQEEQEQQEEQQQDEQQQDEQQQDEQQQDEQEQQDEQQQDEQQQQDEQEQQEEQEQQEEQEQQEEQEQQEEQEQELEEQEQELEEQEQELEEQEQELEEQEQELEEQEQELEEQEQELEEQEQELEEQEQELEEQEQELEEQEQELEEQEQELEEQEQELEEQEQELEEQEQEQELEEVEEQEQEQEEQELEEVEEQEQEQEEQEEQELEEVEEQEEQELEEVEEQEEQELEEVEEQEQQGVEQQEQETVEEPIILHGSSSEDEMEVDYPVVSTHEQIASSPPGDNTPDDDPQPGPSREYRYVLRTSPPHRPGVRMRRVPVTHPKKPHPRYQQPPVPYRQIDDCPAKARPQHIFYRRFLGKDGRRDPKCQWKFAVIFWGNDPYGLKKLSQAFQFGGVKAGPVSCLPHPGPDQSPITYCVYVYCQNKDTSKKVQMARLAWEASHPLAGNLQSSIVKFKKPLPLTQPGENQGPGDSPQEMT
RanGTP-Imp inh – disruptors of Ran-importin-beta complex formation – biochemical, FRET, CFP-Ran, YFP-importin-beta, homogeneous, primary screen | 300,000 tested, 1.1% active | cell-free CFP-Ran/YFP-importin-beta FRET ratio | inhibition, % (test concentration not listed) | AID 2216;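 active = most replicates above 15%; inconclusive = exactly half above 15%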;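 also: 0% = DMSO wells and 100% = Ran loaded with GDP instead of GTP; wells of about 40 µL received 100 nL stock; the first replicate is given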
T cruzi repl – T. cruzi replication inhibition; T. cruzi beta-gal in NIH3T3, luminescence, 90 h; inhibition, % (test concentration not listed); 300,000 tested, 1.4% active; AID 1885;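 active = mean inhibition across valid replicates above about 55%, limit read from the data; inconclusive = mean below that limit but half or more replicates reach it; inactive = mean below it, under half of replicates reach it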;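 also: signal also drops with host cell toxicity which is not excluded here; 0% = plate median of DMSO wells and 100% = zero luminescence signal; higher percent means less beta-gal luminescence so fewer parasites; stock transfer was 50 nL into about 50 µL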
UCH37 DUB inh – inhibitors of human deubiquitinating enzyme UCH37; Q9Y5K5; purified proteasome/UCH37, Ub-AMC cleavage fluorescence; inhibition, % (no concentration beside the values); 330,000 tested, 0.33% active;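 active = mean of two replicates above 20%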;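 also: 0% = compound-free wells with enzyme and 100% = wells lacking proteasome; stock transfer was 100 nL into about 20 µL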
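Signal – fluorescence, ex 355 nm, em 460 nm · System – Proteasome-bound UCH37 · Input – 0.15 nM proteasome as dispensed · Timing – 30 min preincubation with enzyme, 25 min cleavage at room temperature · Read-out basis – percent inhibition of cleavage signal versus uninhibited and no-proteasome wells · Medium – Tris-HCl pH 7.4 with ATP-MgCl2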
* = called active by the depositor.

Results for O=C(NCC1CCCN1S(=O)(=O)c1cccs1)c1cccc([N+](=O)[O-])c1 (stereo unspecified) ?
Beta apoptosis: 1; A1 inh: 1.3; Calb FLC: -2; B2AR ag: 1; LANA-H2A inh: -2.6; RanGTP-Imp inh: -0.1; T cruzi repl: -1; UCH37 DUB inh: 0.9

How did O=S(=O)(c1ccc(Cl)nc1)N1CCN(c2ncccn2)CC1 do in these assays?
Beta apoptosis: -2; A1 inh: -0.7; Calb FLC: -2; B2AR ag: -9; LANA-H2A inh: 0.5; RanGTP-Imp inh: 4.8; T cruzi repl: -9; UCH37 DUB inh: -2.7

What do the screens show for `CC(=O)Nc1ccc(OC(=O)CC2SC(=O)NC2=O)cc1` (stereo unspecified)?
Beta apoptosis: -8; A1 inh: -0.4; Calb FLC: 10; B2AR ag: -5; LANA-H2A inh: -1.6; RanGTP-Imp inh: 2.6; T cruzi repl: -19; UCH37 DUB inh: -2.4

Results for Cc1ccc(NC(=O)COc2ccc(/C(N)=N/O)cc2)cc1C ?
Beta apoptosis: 1; A1 inh: 0.1; Calb FLC: 6; B2AR ag: -3; LANA-H2A inh: 1.1; RanGTP-Imp inh: 2.8; T cruzi repl: 35; UCH37 DUB inh: 3.0

How did COc1cccc(/C=N/NC(=O)c2ccncc2)c1OC(=O)c1ccc(Br)cc1 do in these assays?
Beta apoptosis: 6; A1 inh: 1.8; Calb FLC: -29; B2AR ag: 5; LANA-H2A inh: 12; RanGTP-Imp inh: 5.6; T cruzi repl: -8

How did CCC1CN(S(=O)(=O)c2cc(-c3cc(C)no3)ccc2OC)c2cc(C)ccc2O1 (stereo unspecified) do in these assays?
Beta apoptosis: 17; A1 inh: 1.5; Calb FLC: 19; B2AR ag: -7; LANA-H2A inh: -0.2; RanGTP-Imp inh: -2.4; T cruzi repl: 26; UCH37 DUB inh: 2.2

How did CNC(=O)c1cc2cc(OC)ccc2oc1=O do in these assays?
Beta apoptosis: 2; A1 inh: 0.1; Calb FLC: -19; B2AR ag: -4; LANA-H2A inh: 4.3; RanGTP-Imp inh: -0.9; T cruzi repl: -10; UCH37 DUB inh: inactive

What do the screens show for `CCCC/C(O)=C1\C(=O)CC(C)(C)CC1=Nc1ccc(OC)cc1`?
Beta apoptosis: 5; A1 inh: 0.8; Calb FLC: 6; B2AR ag: -2; LANA-H2A inh: 1.1; RanGTP-Imp inh: 5.9; T cruzi repl: 23; UCH37 DUB inh: 2.3

How did Cc1nn(C(=O)c2ccc([N+](=O)[O-])cc2)c(C)c1Br do in these assays?
Beta apoptosis: -4; A1 inh: 0.2; Calb FLC: 15; B2AR ag: -1; LANA-H2A inh: 3.6; RanGTP-Imp inh: -1.2; T cruzi repl: -1; UCH37 DUB inh: 4.6

Results for COc1ccccc1NC(=O)COC(=O)CCS(=O)(=O)c1ccc(C)cc1 ?
Beta apoptosis: 0; A1 inh: 0.2; Calb FLC: -8; B2AR ag: -1; LANA-H2A inh: -4.2; RanGTP-Imp inh: 1.5; T cruzi repl: -7; UCH37 DUB inh: 4.8

Results for CSC(=NC#N)N1CCN(C(c2ccccc2)c2ccccc2)CC1 ?
Beta apoptosis: 11; A1 inh: 0.4; Calb FLC: 15; B2AR ag: 2; LANA-H2A inh: 6.3; RanGTP-Imp inh: 4.2; T cruzi repl: 8; UCH37 DUB inh: 2.6

What do the screens show for `CCCc1cc(=O)oc2c3c(cc(OCC(=O)N4CCC[C@H]4C(=O)O)c12)OC(C)(C)CC3`?
Beta apoptosis: -3; A1 inh: -0.8; Calb FLC: -4; B2AR ag: -4; LANA-H2A inh: -0.8; RanGTP-Imp inh: 2.4; T cruzi repl: -4; UCH37 DUB inh: inactive

How did CCOC(=O)CCc1c(C)nc(SCc2ccc(C(=O)O)cc2)c(C#N)c1C do in these assays?
Beta apoptosis: -3; A1 inh: -0.5; Calb FLC: -1; B2AR ag: 17; LANA-H2A inh: -5.5; RanGTP-Imp inh: -1.5; T cruzi repl: 5; UCH37 DUB inh: 2.6

Results for Cn1c(CCC(=O)OCC(=O)Nc2ccc(Oc3ccccc3)cc2)nc(=O)c2ccccc21 ?
Beta apoptosis: -1; A1 inh: -0.3; Calb FLC: 12; B2AR ag: -13; LANA-H2A inh: 1.5; RanGTP-Imp inh: 4.0; T cruzi repl: -30; UCH37 DUB inh: 2.3

Results for COc1cc(/C=C2/C(=O)N(c3ccc(C)c(C)c3)N=C2C)cc([N+](=O)[O-])c1O ?
Beta apoptosis: -1; A1 inh: 0.1; Calb FLC: 11; B2AR ag: 2; LANA-H2A inh: -0.5; RanGTP-Imp inh: 0.1; T cruzi repl: -2; UCH37 DUB inh: 7.6

Results for Cc1ccc(-n2nc3c(=O)n(CCCC(=O)NCc4ccc(Cl)cc4)nc(C)c3c2C)cc1 ?
Beta apoptosis: -5; A1 inh: 0.5; Calb FLC: 1; B2AR ag: -9; LANA-H2A inh: 17; RanGTP-Imp inh: 4.7; T cruzi repl: -9; UCH37 DUB inh: 1.9

How did CCOc1cc(OCC)c(C(C)=O)cc1OCC do in these assays?
Beta apoptosis: -3; A1 inh: -0.3; B2AR ag: 1; LANA-H2A inh: 0.1; UCH37 DUB inh: 5.6

How did Cc1ccc(NC(=O)C2CCN(S(=O)(=O)c3cnc[nH]3)CC2)cc1C do in these assays?
Beta apoptosis: -3; A1 inh: -0.7; Calb FLC: 31; B2AR ag: 7; RanGTP-Imp inh: 0.7; T cruzi repl: -6; UCH37 DUB inh: 2.6

How did Clc1ccc2nnc(Cl)n2n1 do in these assays?
Beta apoptosis: -5; A1 inh: 0.6; Calb FLC: -2; B2AR ag: 9; LANA-H2A inh: -0.7; RanGTP-Imp inh: 2.0; T cruzi repl: -1; UCH37 DUB inh: -30

Results for COCc1nnc(NC(=O)c2ccc(OC)cc2OC)s1 ?
Beta apoptosis: -4; A1 inh: -1.8; Calb FLC: -7; B2AR ag: -13; LANA-H2A inh: -2.3; RanGTP-Imp inh: 3.3; T cruzi repl: -2; UCH37 DUB inh: 2.3

What do the screens show for `CCOC(=O)C1CCN(C(=O)COC(=O)c2ccccc2OCC)CC1`?
Beta apoptosis: -2; A1 inh: -0.2; B2AR ag: 0; LANA-H2A inh: 6.1; UCH37 DUB inh: 1.1

Results for COc1ccc(CC(=O)Nc2nccs2)cc1S(=O)(=O)N1CCOCC1 ?
Beta apoptosis: -4; A1 inh: 1.2; B2AR ag: 0; LANA-H2A inh: 0.6; UCH37 DUB inh: 4.5

How did O=C(O)c1cc(O)c2c(c1)[C@@H]([C@H]1c3cc(C(=O)O)cc(O)c3C(=O)c3c(O[C@@H]4O[C@H](CO)[C@@H](O)[C@H](O)[C@H]4O)cccc31)c1cccc(OC3O[C@H](CO)[C@@H](O)[C@H](O)[C@H]3O)c1C2=O (stereo partly specified) do in these assays?
Beta apoptosis: 8; A1 inh: 2.5; Calb FLC: 7; B2AR ag: 23; LANA-H2A inh: 19*; RanGTP-Imp inh: -28; T cruzi repl: -2; UCH37 DUB inh: 31*

How did COc1ccc(-c2sc3ccc(N4CCOCC4)cc3c2-c2ccc(OC)c(F)c2)cc1 do in these assays?
Beta apoptosis: 12; A1 inh: 0.7; Calb FLC: 2; B2AR ag: 4; LANA-H2A inh: 3.2; RanGTP-Imp inh: 1.4; T cruzi repl: 2; UCH37 DUB inh: -1.9

What do the screens show for `CCCOc1ccccc1C(=O)N(Cc1cccc(Br)c1)C1CCS(=O)(=O)C1` (stereo unspecified)?
Beta apoptosis: -3; A1 inh: 0.1; Calb FLC: 9; B2AR ag: 4; LANA-H2A inh: 1.3; RanGTP-Imp inh: 2.4; T cruzi repl: -3; UCH37 DUB inh: 0.9

Results for Cn1ncc(Br)c1C(=O)Nc1c(F)c(F)cc(F)c1F ?
Beta apoptosis: -37; A1 inh: 0.1; Calb FLC: 1; B2AR ag: -4; LANA-H2A inh: -0.6; RanGTP-Imp inh: 3.7; T cruzi repl: -6; UCH37 DUB inh: 2.9

What do the screens show for `O=C(COc1ccc(Oc2ccccc2)cc1)NC1CCS(=O)(=O)C1` (stereo unspecified)?
Beta apoptosis: -6; A1 inh: 0.3; B2AR ag: -11; LANA-H2A inh: 6.6; UCH37 DUB inh: 4.5

How did CCc1ccc2c(c1)C(=O)c1ccccc1C2=O do in these assays?
Beta apoptosis: -16; A1 inh: -7.1; Calb FLC: -19; B2AR ag: -12; LANA-H2A inh: 4.2; RanGTP-Imp inh: -1.4; T cruzi repl: inconclusive; UCH37 DUB inh: -0.3

What do the screens show for `CCn1c2ccccc2c2cc(NC(=O)COc3ccccc3OC)ccc21`?
Beta apoptosis: -7; A1 inh: 0.5; Calb FLC: 8; B2AR ag: 2; LANA-H2A inh: 4.2; RanGTP-Imp inh: 1.8; T cruzi repl: 19; UCH37 DUB inh: -1.9

Results for CCn1c(NCCO)nc2c(c1=O)C(C)(CC)Cc1ccccc1-2 (stereo unspecified) ?
Beta apoptosis: 2; A1 inh: -0.2; Calb FLC: 35; B2AR ag: -8; LANA-H2A inh: 0.6; RanGTP-Imp inh: 3.0; T cruzi repl: 0; UCH37 DUB inh: inactive

Continued, starting with the last 2 of the part before.
What do the screens show for `CCn1c2ccccc2c2cc(NC(=O)COc3ccccc3OC)ccc21`?
Beta apoptosis: -7; A1 inh: 0.5; Calb FLC: 8; B2AR ag: 2; LANA-H2A inh: 4.2; RanGTP-Imp inh: 1.8; T cruzi repl: 19; UCH37 DUB inh: -1.9

Results for CCn1c(NCCO)nc2c(c1=O)C(C)(CC)Cc1ccccc1-2 (stereo unspecified) ?
Beta apoptosis: 2; A1 inh: -0.2; Calb FLC: 35; B2AR ag: -8; LANA-H2A inh: 0.6; RanGTP-Imp inh: 3.0; T cruzi repl: 0; UCH37 DUB inh: inactive

What do the screens show for `Cc1cc(NC(=O)CCC(=O)N(CC2CCCO2)C(C(=O)NC2CCCC2)c2ccccc2C)no1` (stereo unspecified)?
Beta apoptosis: 0; A1 inh: 0.9; B2AR ag: -4; LANA-H2A inh: -4.0; RanGTP-Imp inh: 0.2; T cruzi repl: 2; UCH37 DUB inh: 2.1

How did COC(=O)c1ccccc1NC(=O)CSc1nc(NC(=O)c2ccccc2)c2c(C)c(C)oc2n1 do in these assays?
Beta apoptosis: -1; A1 inh: 0.0; Calb FLC: -15; B2AR ag: 7; LANA-H2A inh: -0.9; RanGTP-Imp inh: -0.1; T cruzi repl: 32; UCH37 DUB inh: -2.0

Results for Cc1c(CCC(=O)NCCC(=O)O)c(=O)oc2c(C)c3oc4c(c3cc12)CCCC4 ?
Beta apoptosis: -5; A1 inh: 0.4; Calb FLC: 5; B2AR ag: 5; LANA-H2A inh: -5.2; RanGTP-Imp inh: -0.6; T cruzi repl: -4; UCH37 DUB inh: -55

What do the screens show for `COC(=O)c1ccc(NC(=O)C2C3C=CC(C3)C2C(=O)O)cc1` (stereo unspecified)?
Beta apoptosis: -1; A1 inh: 0.1; Calb FLC: 4; B2AR ag: -8; LANA-H2A inh: -1.5; RanGTP-Imp inh: 3.1; T cruzi repl: -14; UCH37 DUB inh: 2.6

Assay outcomes: PubChem BioAssay, several laboratories
